Screens from PubChem BioAssay.
NPYLR7 agonist: mosquito NPYLR7 agonism; activation, % at 10 µM; 270,000 compounds, 0.15% hits; HEK293T NPYLR7/Galpha15, GCaMP6s calcium fluorescence; in the data active = activation above about 40%;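 also: 0% = vehicle and 100% = reference agonist at the receptor; some compounds past the cut are filed as inactive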
NPYLR7 agonist max-min: second read-out of NPYLR7 agonist, no call of its own (marks repeat the call); activation, %; measured here: Max-Min RFU normalised activation; some inactives read as strong as hits;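 span of the calcium signal over five minutes; 0% = vehicle and 100% = native peptide agonist; compound fluorescence can raise it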
Starred values were filed as active, the others as inactive; & = joins results of further samples.

SMILES	NPYLR7 agonist	NPYLR7 agonist max-min
CCOC(=O)CN1C(=O)c2ccccc2NC12CCNCC2	12	6
COc1cccc(CC(=O)N(Cc2ccccc2)[C@H]2CCN(C)C[C@@H](O)C2)c1	5	15
O=C(CCCn1nc(-c2ccco2)ccc1=O)NCCc1ccccc1	-1	-1
O=C(NCc1ccc2c(c1)OCO2)c1ccccc1NC(=O)C1CC(=O)N(C2CCCC2)C1 (stereo not given)	-13	-11
COc1ccc(/C=C2\SC(=S)N(c3cccc(F)c3)C2=O)cc1O	0	3
CC(NC(=O)c1cn(Cc2ccccc2F)nn1)c1ccccc1-n1cccn1 (stereo not given)	12	8
COCC(=O)Nc1ccc(N(C)C)c(CN(C(=O)C2CC2)C2CCCCC2)c1	-3	10
O=C(c1cc([N+](=O)[O-])cc([N+](=O)[O-])c1)N1CCN(c2ccccn2)CC1	-2	4
Cc1cc2c(cc1Br)N(S(=O)(=O)c1ccc3[nH]c(=O)oc3c1)CC(C)O2 (stereo not given)	7	4
Cc1nc2nc(C(=O)N3CCC(C)CC3)[nH]n2c(=O)c1C	-14	-17
Cc1cc(C)cc(Oc2cnn(-c3cccc(Cl)c3)c(=O)c2Nc2cccc(C(=O)O)c2)c1	12	10
CC(NCc1cccc(Cl)c1)c1ccc(OCC(=O)NC2CC2)cc1 (stereo not given)	-4	-6
CNS(=O)(=O)c1ccc(CN2CCOC(CC3CCCCC3)C2)cc1 (stereo not given)	9	7
COCCN(Cc1ccc(C(C)(C)O)o1)Cc1cccs1	-3	4
CC1c2ccsc2CCN1Cn1ncn(C(C)C)c1=S (stereo not given)	6	6
O=C1CC2(CCN(C(=O)c3ccccc3OC(F)(F)C(F)F)CC2)CN1	11	-3
Cc1ccc(C)c(OCCNC2CCCNC2)c1 (stereo not given)	-3	-4
Cc1cccc(N2CC(C(=O)Nc3ccc(N4CCCC4=O)c(Cl)c3)CC2=O)c1C (stereo not given)	7	11
CCOC(=O)c1cn[nH]c1S(=O)(=O)N1CCN(c2cccc(C)c2)C(C)C1 (stereo not given)	1	-2
CC(CNC(=O)C1CCC(=O)NC1)c1c(Cl)cccc1Cl (stereo not given)	4	4
CCC(O)c1nc2ccccc2n1Cc1ccccc1 (stereo not given)	0	4
CCOc1ccccc1-c1nc(C(N)=O)c2[nH]c(=O)n(-c3ccc(C(C)(C)C)cc3)c2n1	58	36
CCCCC(=O)N(C)c1c(CC)nc2c(OCc3c(C)noc3C)cccn12	-3	-2
COc1cccc(-c2cc(CC(=O)N3c4ccccc4CC3C)no2)c1 (stereo not given)	4	5
COc1ccc(C(=O)NC(C(=O)NC(C)C(C)C)C2CCN(C(=O)c3ccccc3F)CC2)cc1 (stereo not given)	-7	0
Fc1ccc(-c2csc(-c3ccccn3)n2)cc1F	6	8
CCn1cnn(CN(C)Cc2cc(Br)ccc2OC)c1=S	15	10
Cc1ccc(CNC(=O)COC(=O)c2ccc3c(c2)CCC(=O)N3)cc1	13	6
CCOc1ccc(-c2ccnc(N3CCN(C(=O)C=C(C)C)CC3)n2)cc1	5	2
CCC(c1cccnc1)N(C)Cc1ccccc1C(=O)O (stereo not given)	3	2
CC(NC(C(=O)N(C)C)c1ccccc1)C1CC2CCC1C2 (stereo not given)	0	-1
CC1CC(=O)c2cn3nc(-c4ccccc4)nc3nc2C1 (stereo not given)	-1	24
CN=c1scc(-c2cccc(Br)c2)n1N=Cc1ccccc1	6	4
O=C1c2ccccc2C(=O)c2c1ccc1c(=O)n(C3CCCCC3)[nH]c21	1	4
CCOC(=O)C1(C)CCN1C(=O)c1cccc(Cl)c1 (stereo not given)	-1	-2
CCC(C)NC(=O)CN1CCCCC1CC (stereo not given)	20	13
CC(C)S(=O)(=O)N(C)C(=O)CC1C=CCC1 (stereo not given)	-2	-4
C=C(NN=c1sc2ccccc2n1C)c1ccccn1	-6	-7
COCCOc1cccn2c(N(C)C(=O)C3CCCCC3)c(C)nc12	10	0
Cc1cccnc1NC(=O)Nc1ccc(N2CCCN(C)CC2)cc1	-3&2	-5&1
COCCN1CCCC[C@]2(C[C@H](CO)[C@H](c3ccccc3)N2C(=O)c2ccc3c(c2)OCO3)C1=O	2	12
COc1cc2c(cc1C(=O)N(C)Cc1nc(C)no1)CCC2	8	7
CCOC(=O)N1CCN(C2CCCN(C(=O)c3cnc4ccccn4c3=O)C2)CC1 (stereo not given)	5&1	5&-1
Cc1oc(-c2ccco2)nc1CSCC(=O)N1CCC(C)CC1	5	7
COC(=O)C(c1ccccc1F)C1C=CC(NC(=O)c2ccc(-c3ccccc3)cc2)C1 (stereo not given)	4	1
CCN1CCN(Cc2nc3c(c(=O)n(C)c(=O)n3C)n2Cc2cccc3ccccc23)CC1	-1	25
Cc1c(C(=O)NCc2ccc(F)cc2)sc(=O)n1Cc1ccc(C(=O)c2ccccc2)cc1	10	1
CCOCCOC(=O)C1=C(C)NC2=C(C(=O)CCC2)C1c1ccc(OC)c(OC)c1 (stereo not given)	1	-14
COc1cccc(CN2CCC2(C)C(=O)NCCNC(C)=O)c1OC (stereo not given)	6	2
O=C(NCCN1CCCCCC1)C1CCCN(S(=O)(=O)N2CCCC2)C1 (stereo not given)	27	12
CCOc1ccc(-n2nnc3c(=O)[nH]cnc32)cc1	-10	-10
COC(=O)[C@@H]1C[C@@H](N(C)C)CN1Cc1ccccc1-c1ccccc1	7	1
Cn1nc(C(=O)N(c2ccccc2)c2ccccn2)c2ccccc2c1=O	5	5
CN(CC1CCN(CCc2ccc(F)cc2)CC1)C(=O)CC1CCS(=O)(=O)C1 (stereo not given)	10	5
Cc1cccc(Nc2ccc(N3CCN(S(C)(=O)=O)CC3)nn2)n1	17	9
Cc1ccn2c(NC(C)(C)C)c(-c3ccccc3F)nc2c1	-5	-5
CCC(C)N(Cc1cc(Cl)ccc1OS(=O)(=O)c1ccc(NC(C)=O)cc1)C(=O)COC (stereo not given)	-8	-6
CCCc1[nH]n(-c2ccc(F)cc2)c(=O)c1C1=C([n+]2ccc(C)c(C)c2)C(=O)N(C(C)C)C1=O	-9	-7
Cc1ccccc1NC1=C([N+](=O)[O-])CS(=O)(=O)C1	2	1
CCOC(=O)CSc1ccc2nnc(-c3ccccn3)n2n1	-2	-3
New compounds follow
SMILES	NPYLR7 agonist	NPYLR7 agonist max-min
CCc1nc2ccc(C(=O)N(C)Cc3ccccc3)cn2c1N(C)CCCc1ccccc1	13	11
Cn1c(Cl)cnc1CNc1ccc(Cl)cc1F	4	1
CCOC(=O)Cn1c(=O)c2c(nc3n2CCCCN3c2ccc(OCC)cc2)n(C)c1=O	-3	-5
Cc1ccc(C2=NC3(CCCC3)NC2=S)cc1	-2	-3
CCCCC(=O)Nc1nc(-c2cc(C)ccc2C)cs1	5	9
O=c1c2sccc2ncn1Cc1noc(-c2ccsc2)n1	8	7
COc1ccc(C(=O)NC(=O)Nc2cc(C)ccn2)cc1	-18	-20
CC(=O)c1ccccc1NC(=O)CCN1CCSCC1	1	-4
COCCN(Cc1csc(COc2cc(C)cc(C)c2)n1)C(=O)c1cccc(Br)c1	3	5
CCOC(=O)Nc1ccc2c(c1)C(=O)N(CC)c1ccccc1O2	-1	-2
COc1cc(C(=O)N2C[C@H](O)[C@@H](N3CCOCC3)C2)ccn1	9	6
CCCn1c(=O)c2ccccc2n(CC(=O)NCC(C)C)c1=O	-6	0
CCNC(=O)c1coc(CN(Cc2ccccc2F)CC2CC2)n1	0	6
O=C(NCCc1nc(-c2ccccc2)cs1)c1ccc(-n2cnnc2)cc1	0	2
CC(C)c1ccc(OCC2c3ccsc3CCN2C(=O)CN(Cc2ccco2)C(=O)Nc2cccc(Cl)c2)cc1 (stereo not given)	-2	4
CCOCCn1c(=O)c2c(nc3n2CC(C)CN3c2ccc(F)cc2)n(C)c1=O (stereo not given)	0	0
CCc1ccc(-c2nccn2-c2ccccc2CCO)o1	-8	-9
O=C(NC1CCC(O)CC1)c1cccnc1Sc1ccccc1 (stereo not given)	0	-1
COc1ccccc1C(CC(=O)NCCCN1CCOCC1)c1c[nH]c2ccccc12 (stereo not given)	-1	0
CCC(NC(=O)c1n[nH]c(=O)c2ccccc12)c1ccc(Br)cc1 (stereo not given)	2	5
COc1nc(-c2ccc(C(F)(F)F)cc2)n(-c2ccc(N)cc2)n1	-2	-10
Cc1ccc2c(c1)CCCN2C(=O)c1sc2ccc3ccccc3c2c1Cl	-6	-6
CCOC(=O)c1[nH]c(C)c(C(=O)C(C)N(CCOC)C(=O)c2cccc(Cl)c2)c1C (stereo not given)	1	6
CCOC(=O)N1CCN(C(c2cccc(OC)c2)C2Sc3nc(-c4ccco4)nn3C2=O)CC1 (stereo not given)	1	0
CN(Cc1sc2ccccc2c1Cl)C(=O)CC1NC(=O)NC1=O (stereo not given)	5	0
Cc1nc(N)nc(OCC(F)(F)C(F)F)c1Br	39	14
C=CCOn1c(=O)c(-c2ccc(F)cc2)[n+]([O-])c2ccccc21	-3	-3
CCCC(=O)N1CCC1(C)C(=O)Nc1cc(C)ccc1C (stereo not given)	-5	-5
FC(F)(F)c1cccc(-n2nnc(-c3ccccc3)n2)c1	-12	-18
CCOC(=O)c1cnn(-c2cc(=O)n(C)c3ccccc23)c1CN(C)C(C)c1c(C)n[nH]c1C (stereo not given)	4	4
CCNC(=O)Cc1ccc(-n2nc(C(=O)O)c3ccccc32)cc1	-1	-1
Cc1nc2sc(C)c(C)c2c(=O)[nH]1	0	6
COc1cccc(NC(=O)Nc2ccc(-n3nc(OCC(C)C)nc3-c3ccc4c(c3)OCO4)cc2)c1	18	29
CCC1Oc2ccc(N)cc2CN(Cc2cccc(C(F)(F)F)c2)C1=O (stereo not given)	26	18
CCCC1=NN(C(C)=O)C(C(=O)N2CCC(C)CC(C)(C)C2)O1 (stereo not given)	14	9
COCC(C)NC(=O)NCCc1cccc(OC)c1O (stereo not given)	7	5
CCc1ccc(CN(C)Cc2cnc(S(=O)(=O)CC)n2Cc2ccccc2)nc1	7	3
Cc1ccc(C(=O)N2CCn3c(nnc3C(=O)N(C)C)C2)cc1	5	3
Cc1nc2cc(OCc3nc(C(=O)N4CCSCC4)co3)ccc2s1	3	-5
C=CCN1C(=O)NC(c2cccc(Cl)c2)C2=C1CN(CC(=O)NCC1CCCO1)C2=O (stereo not given)	0	7
CC(=O)N1CCN(c2cc(Oc3cc(C)ccc3F)ncn2)CC1	-2	-8
N#CCCNC(=O)c1cc(N2CCOCC2)nc2ccccc12	5	3
Cc1ncsc1CCCNC(=O)c1cnn2c1CCCC2	4	4
Fc1ccc(CSc2nccn3nc(-c4ccc(F)cc4)cc23)cc1	7	3
O=C(Nc1ccc(F)c(Cl)c1)N1CCSC1c1cccc(OCc2ccccc2)c1 (stereo not given)	20	27

Sorted by SMILES length (smallest number first): 16 of the compounds above
SMILES	NPYLR7 agonist	NPYLR7 agonist max-min
CCC(C)NC(=O)CN1CCCCC1CC (stereo not given)	20	13
Cc1nc2sc(C)c(C)c2c(=O)[nH]1	0	6
Cc1nc(N)nc(OCC(F)(F)C(F)F)c1Br	39	14
CCC(c1cccnc1)N(C)Cc1ccccc1C(=O)O (stereo not given)	3	2
CC1CC(=O)c2cn3nc(-c4ccccc4)nc3nc2C1 (stereo not given)	-1	24
CN=c1scc(-c2cccc(Br)c2)n1N=Cc1ccccc1	6	4
Cc1cccnc1NC(=O)Nc1ccc(N2CCCN(C)CC2)cc1	-3&2	-5&1
Cc1nc2cc(OCc3nc(C(=O)N4CCSCC4)co3)ccc2s1	3	-5
COc1cc(C(=O)N2C[C@H](O)[C@@H](N3CCOCC3)C2)ccn1	9	6
COCC(=O)Nc1ccc(N(C)C)c(CN(C(=O)C2CC2)C2CCCCC2)c1	-3	10
CN(CC1CCN(CCc2ccc(F)cc2)CC1)C(=O)CC1CCS(=O)(=O)C1 (stereo not given)	10	5
COCCN(Cc1csc(COc2cc(C)cc(C)c2)n1)C(=O)c1cccc(Br)c1	3	5
C=CCN1C(=O)NC(c2cccc(Cl)c2)C2=C1CN(CC(=O)NCC1CCCO1)C2=O (stereo not given)	0	7
Cc1c(C(=O)NCc2ccc(F)cc2)sc(=O)n1Cc1ccc(C(=O)c2ccccc2)cc1	10	1
O=C(c1cc([N+](=O)[O-])cc([N+](=O)[O-])c1)N1CCN(c2ccccn2)CC1	-2	4
COc1ccc(C(=O)NC(C(=O)NC(C)C(C)C)C2CCN(C(=O)c3ccccc3F)CC2)cc1 (stereo not given)	-7	0

The listing continues.
SMILES	NPYLR7 agonist	NPYLR7 agonist max-min
CCOc1cccc2cc(C(N)=O)c(=Nc3cccc(C)c3)oc12	1	-4
CC1(C)C[C@H]2C[C@@H](O)[C@H](Nc3ccccn3)[C@]2(O)CO1	0	4
Cc1nn(CC(=O)NC2CC2)c(C)c1S(=O)(=O)NC(C)(C)C	-1	20
CN(Cc1cc(-c2cccnc2)no1)C(=O)C(=O)c1ccco1	1	-2
CC(=O)NCCCSCc1nnc(-c2ccccc2Cl)o1	0	0
CC(NC(=O)C1Cc2cc(Cl)ccc2O1)c1ccc(F)c(F)c1 (stereo not given)	0	-1
COc1ncccc1N(C)C(=O)c1cnc(Cc2ccccc2)s1	8	4
O=C(Oc1cccc2ccccc12)c1ccc(OC(F)F)cc1	2	0
OC(CNCc1c(Cl)cccc1N1CCOCC1)c1ccc(F)cc1 (stereo not given)	7	5
O=c1c2ccccc2[nH]c(=S)n1Cc1ccc(-n2cccn2)nc1	7	2
CCCCc1ccc(N2CC(C)Cn3c2nc2c3c(=O)n(C(C)C(=O)OC)c(=O)n2C)cc1 (stereo not given)	9	6
Cc1cc(C2CCC2)nc(N[C@@H]2C[C@@H](CO)N(C)C2)n1	11	5
COc1cccc(Cc2nsc(N3CCN(CCNC(=O)Nc4cccc(Cl)c4)CC3)n2)c1	-1	5
Cc1nc(CN(C)C(=O)c2cn[nH]c2-c2ccccc2Cl)cs1	0	-1
CN1C(=O)Cc2cc(S(=O)(=O)Nc3ccn(C)n3)ccc21	2	1

Not all compounds are listed. The share of hits here may be higher or lower than overall.
